Screening data deposited in PubChem by Southern Research Institute.
V. cholerae motility – Vibrio cholerae motility inhibitors, OD read-out (AID 588778) | Vibrio cholerae motility, OD read-out; higher % means a stronger effect; test concentration not given here; primary cut-off and reference of the scale not given here; strong numbers were not always called active | inhibition, %; hits with a dose series show IC50 in µg/mL | 10,000 tested, under 10 active; in the data active = confirmed in a dose series
V. cholerae motility viability – also measured in V. cholerae motility; calls as there; inhibition, %; measured here: bacterial viability at 10 ug/mL;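 higher means fewer living bacteria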
The depositor's hits bear a star. This is a subset; the hit share may differ from the screen's.

Structure | V. cholerae motility | V. cholerae motility viability
O=[N+]([O-])c1cccc(NC(=S)Nc2ccc(Cl)c(Cl)c2)c1 | 96% | 98
CC(=O)c1c(C)cc(C)c(CSc2ccccn2)c1C | -3% | 7
CC(C)COc1ccc(CC(C#N)C(=O)O)cc1Cl (centres undefined) | 10% | -5
O=[N+]([O-])c1ccc(COc2ccc(CO)cc2I)cc1 | 13% | 2
c1ccc2[nH]c(-c3cncs3)nc2c1 | -3% | 0
COc1cc2c(cc1OC)C1(Nc3c-2c(C)nn3-c2ccccc2)C(=O)Nc2ccccc21 (centres undefined) | 29% | 7
COc1ccc(S(=O)(=O)NC(C)C(=O)NC2CC2)cc1C (centres undefined) | 11% | -2
COc1ccc(CCNC(=O)Nc2ccc(Br)cc2Cl)cc1OC | 19% | 5
CC(=O)c1cccc(NC(=S)Nc2cc(Cl)c(Cl)cc2Cl)c1 | 25% | 3
O=C1c2ccccc2C(=O)N1c1nnc(Sc2ccc([N+](=O)[O-])c3cccnc23)s1 | 16% | 2
O=S(=O)(Cc1ccccc1Cl)Nc1ccc(F)c(C(F)(F)F)c1 | 12% | 4
CCOC(=O)C1(C)C=C(Nc2ccc(OCC)cc2)C(=O)N1c1ccc(OCC)cc1 (centres undefined) | -3% | -6
O=C(CSc1nc2ccccc2s1)Nc1ncc(Cc2ccc(Br)cc2)s1 | -5% | 5
C=CCn1c(Sc2nnc(C)s2)nc2c1c(=O)[nH]c(=O)n2C | 2% | -5
NS(=O)(=O)c1ccc2oc3ccccc3c2c1 | -22% | -2
O=C(Nc1c(C(=O)Nc2ccc(Br)cc2)cnn1-c1ccccc1)c1cccs1 | 32% | 3
O=C(Nc1c(-c2cccs2)nc2ccc(Cl)cn12)c1ccc(Cl)cc1 | -34% | -14
COc1ccc(Cn2ccnc2)cc1Br | 1% | -4
Oc1ccc(Nc2nnc(-c3ccccc3)c3ccccc23)cc1 | 9% | 3
COc1ccccc1/C=C/CN(CCCN(C)C)CCCN(C)C | -3% | -2
Cc1ccc2c(c1)C(=O)C(=O)N2CCOc1ccc(Cl)cc1Cl | 3% | -1
CC(C)SCCCOc1ccc([N+](=O)[O-])cc1 | 45% | 12
Cc1cc(C)n(C(=O)c2cc(Cl)ccc2Cl)n1 | 14% | 37
O=C(CSc1ccc(Cl)cc1)Nc1ncc2c(n1)CC(c1ccccc1)CC2=O (centres undefined) | -14% | -1
CSc1ccccc1NC(=S)Nc1cccnc1 | -2% | -3
NC(=O)Nn1c(CCC(=O)O)ccc1-c1ccc(Cl)cc1 | 6% | 11
COc1ccc2[nH]c(C(=O)O)c(CCC(=O)O)c2c1 | 12% | 3
O=c1[nH]cnc2scc(C3COc4ccccc4O3)c12 (centres undefined) | 26% | 3
COCc1nnc(NC(=O)C(C)C)s1 | -8% | 6
O=C(NCc1cccs1)Nc1ccc(F)cc1F | -5% | -11
O=c1cc(Br)c2ccccc2o1 | 12% | 3
O=C(OCc1cccc([N+](=O)[O-])c1)c1ccc2c(c1)-c1ccccc1C2=O | 16% | 3
O=C(O)c1ccc(COCC(F)(F)F)cc1 | -7% | -5
O=S(=O)(O)c1ccc(N2CCC(c3ccc(Cl)cc3)=N2)cc1 | 12% | 10
Cc1ccc(C)c(N2C(=O)C3C4C=CC(C4=C4CCCCC4)C3C2=O)c1 (centres undefined) | -9% | -2
NCCc1c[nH]c2c(Cl)cc(Cl)cc12 | 61% | 20
Cc1ccccc1C(=O)NC(c1ccccc1)C1CCCC1 (centres undefined) | 6% | 4
O=[N+]([O-])c1cnccc1Nc1cccc(C2=NCCN2)c1 | -4% | 0
Cc1cccc(C)c1-n1[nH]nnc1=S | -20% | -2
O=C(COC(=O)c1cnccn1)c1ccc(OC(=O)c2ccccc2)cc1 | -21% | -5
Cc1ccc(S(=O)(=O)CC2CSc3nc4ccccc4n32)cc1 (centres undefined) | -1% | -4
Nc1ccc(Oc2cccc(Cl)c2)cc1 | 24% | 38
COC(=O)c1ccccc1NC(=S)NC(=O)c1ccc(C)c(I)c1 | -8% | 5
CC(NC(=O)C(c1ccccc1)c1ccccc1)C(=O)Nc1ccc(Br)cc1 (centres undefined) | 22% | 8
CCOC(=O)C1=C(C)Nc2ncnn2C1c1ccccn1 (centres undefined) | -10% | -2
O=C(Nc1ncccc1Cl)C1c2ccccc2Oc2ccccc21 | 19% | -1
O=C(c1ccccc1)C1CCCCC1S(=O)(=O)O (centres undefined) | 12% | 3
COc1ccc(-c2cc(O)cc(O)c2)cc1 | 51% | 20
Cc1cc(C)c(NC(=O)CS)c(Cl)c1 | -15% | -4
CCCCOc1ccc(-c2ncc(N)cn2)cc1 | 2% | 3
COc1cccc2cc(C(=O)C3=C(O)C(=O)N(CCCn4ccnc4)C3c3ccccn3)oc12 (centres undefined) | 0% | -6
O=C(Cn1cnc2ccccc2c1=O)Nc1ccc(OC(=O)c2ccco2)cc1 | -26% | -11
Cc1c(C)c2n(C)c3ccccc3n2c1C(=O)NC(=O)c1ccccc1 | -9% | -9
CS(=O)(=O)N1CCN(c2ccc(NC(=O)CSc3nc(-c4ccccc4)cs3)cc2)CC1 | -6% | -2
COC(=O)NNC(=S)Nc1ccc(Cl)cc1Cl | 37% | 4
CC(C)C(=O)Nc1cccc(NC(=O)c2cccc3c(Br)cccc23)c1 | 1% | -5
COc1cccc(CNc2ccc(O)cc2)c1OCc1ccc(Cl)cc1Cl | 15% | 3
O=C(ON1C(=O)CCC1=O)c1ccc(Br)o1 | 4% | -2
COc1ccc2nc3c(nc2c1)C(=O)c1ccccc1-3 | 2% | 1
C#CC(C)(C)NS(=O)(=O)c1cccc2nsnc12 | 3% | 3

Four structures from above, sorted by length of the SMILES, rising.
Structure | V. cholerae motility | V. cholerae motility viability
CC(C)COc1ccc(CC(C#N)C(=O)O)cc1Cl (centres undefined) | 10% | -5
COc1ccc(S(=O)(=O)NC(C)C(=O)NC2CC2)cc1C (centres undefined) | 11% | -2
CC(NC(=O)C(c1ccccc1)c1ccccc1)C(=O)Nc1ccc(Br)cc1 (centres undefined) | 22% | 8
O=C1c2ccccc2C(=O)N1c1nnc(Sc2ccc([N+](=O)[O-])c3cccnc23)s1 | 16% | 2

Next part:
Structure | V. cholerae motility | V. cholerae motility viability
CCOC(=O)c1ccccc1NC(=O)CC1Nc2cc(C)c(C)cc2NC1=O (centres undefined) | -17% | -6
C#CCSc1nc(-c2ccccc2)c2cc(Cl)ccc2n1 | 9% | -4
COc1ccc(NC(=S)NCCN2CCC(C)CC2)cc1Cl | 10% | 4
CCc1nnc(NC(=O)C2CCCN2S(=O)(=O)c2ccccc2)s1 (centres undefined) | -4% | -2
CCC(=O)Nc1cccc2cccnc12 | 7% | 8
O=C(c1cccs1)N(Cc1cc2ccccc2[nH]c1=O)CC1CCCO1 (centres undefined) | 6% | 3
Cc1ccc(OCCCN2C(=O)NC(C)(C)C2=O)c(I)c1 | -12% | -3
O=C(Nc1cccc2c1CCCC2)c1ccc([N+](=O)[O-])cc1Cl | -23% | -2
O=C(Nc1ccc(Sc2ccc(Cl)cc2)cc1)c1ccccc1[N+](=O)[O-] | -13% | -12
Cc1occc1C(=O)N1CCN(S(C)(=O)=O)CC1 | 14% | 8
Cc1ccc(-c2nc3ccccc3c(=O)n2-c2cccc(C)n2)cc1 | 8% | 23
COc1ccc2nc(Nc3ncc4c(n3)CC(C)(C)CC4=O)nc(C)c2c1 | -4% | -4
C=CCOc1ccc(CNCc2cccnc2)cc1OC | 0% | -7
O=c1[nH]c(CS(=O)(=O)c2ccccc2)nc2ccccc12 | 10% | -5
Cc1c(Cc2ccccc2)c(=O)oc2cc(OC(=O)c3ccco3)c(Cl)cc12 | -8% | 0
N#CC1=C(S)NC(c2ccccc2)=CC1c1ccco1 (centres undefined) | 4% | 0
CC(c1nc2ccccc2o1)N1C(=O)c2ccccc2C1=O (centres undefined) | -11% | -8
Cc1cc(C)n2c(SCc3c(C)noc3C)nnc2n1 | 3% | 1
Cc1c(Cl)cccc1NC(=O)CSCC(=O)c1ccc(Br)cc1 | -8% | -5
CCOC(=O)C(O)(c1ccc2nc(N)sc2c1)C(F)(F)F (centres undefined) | -3% | 1
COc1ccc(/C=C(\C#N)S(=O)(=O)c2ccccc2)cc1OCCN1CCOCC1 | -11% | -10
N#Cc1cn(CCOc2ccc(F)cc2)c2ccccc12 | 9% | 4
O=C(c1cc(-c2cccs2)nc2ccccc12)N1CCN(c2cccc(C(F)(F)F)c2)CC1 | -17% | -5
O=C(CCN1CCOCC1)NNC(=O)Nc1cccc(C(F)(F)F)c1 | -16% | -7
CCCCOc1ccc(-c2ccc(C)cc2)cc1C(=O)O | 11% | 3
Cc1cc(C)cc(C(=O)NC(=S)Nc2nccs2)c1 | -17% | -5
Cc1cccc(OCCCC(=O)NCc2ccco2)c1C | 4% | -8
CN1CCN(S(=O)(=O)c2cccc(S(=O)(=O)c3ccc(Cl)cc3)c2)CC1 | -1% | 1
O=C(CSc1nc2[nH]ncc2c(=O)n1-c1ccccc1)c1ccc2c(c1)OCCO2 | -1% | -2
O=S(=O)(Cc1ccc(Cl)cc1)N1CCN(c2ccccc2)CC1 | 0% | -4

Going on with the list:
Below each SMILES – V. cholerae motility, V. cholerae motility viability
- O=C(Nc1cnccn1)Nc1ccc(Br)cc1Cl
    -18%, -5
- Cc1n[nH]c(C)c1NC(=O)c1cccc(F)c1
    9%, 24
- O=C(Nc1ccccc1Sc1ncnc2scc(-c3ccccc3)c12)c1ccco1
    -3%, -3
- CCCc1nc2ccc(Br)cc2c(=O)n1-c1ccccc1F
    31%, 6
- Nc1ncnc(NCc2ccc(F)cc2)c1[N+](=O)[O-]
    -11%, -8
- CCCCc1cc(=O)oc2cc(OC(=O)c3cccs3)c(Cl)cc12
    -4%, -3
- COc1ccc(-c2cc(-c3ccc4ccccc4c3O)[nH]n2)cc1
    -10%, -4
- CS(=O)(=O)N(CC(=O)O)Cc1ccc(F)cc1
    -2%, -4
- O=C(O)C(Cc1cc2ccccc2[nH]1)N1C(=O)C2CC=C(Cl)CC2C1=O (centres undefined)
    0%, 0
- COC(=O)c1cc(-c2ccc([N+](=O)[O-])cc2)n[nH]1
    -8%, -8
- COC(=O)c1ccccc1NC(=O)NC1CCCc2ccccc21 (centres undefined)
    14%, 30
- CCOc1ccc(C(C)=O)cc1CSc1nc(C)cc(C)n1
    13%, 8
- O=C(Nc1ccncc1)c1ccccc1I
    -2%, 2
- CC(NC(=O)C12CC3(C)CC(C)(CC(C)(C3)C1)C2)C(=O)Nc1ccc(F)cc1F (centres undefined)
    -4%, -2
- Cc1nn(Cc2cccc(Oc3ccccc3)c2)c(C)c1NC(=O)NC12CC3CC(CC(C3)C1)C2
    -12%, -4
- Cc1ccc(S(=O)(=O)NC(=O)NCc2ccc(F)cc2)cc1
    7%, -1
- CCOC(=O)Cc1csc(NC(=O)Nc2ccc(Cl)c(Cl)c2)n1
    -8%, -9
- O=C(O)c1nc(-c2ccc([N+](=O)[O-])cc2)nc2ccccc12
    16%, 3
- CSc1nc(N)nc2sc(C(=O)C34CC5CC(CC(C5)C3)C4)c(N)c12
    -13%, 1
- CC(Sc1nnc(Cc2cccc3ccccc23)o1)C(=O)NC(c1ccccc1)c1ccccc1 (centres undefined)
    -9%, -8
- O=C(CCSc1ccccc1)Nc1ncccn1
    -9%, -1
- Cc1ccc(N(C)C(=O)n2nc(C)c(Br)c2C)cc1
    14%, 2
- O=C(NC(=S)Nc1cc(C(F)(F)F)ccc1N1CCCCC1)c1cccs1
    -6%, -5
- CCOC(=O)c1sc(NC(=O)CSc2nnc3c(n2)[nH]c2ccccc23)nc1C
    3%, -4
- Cc1ccc(S(=O)(=O)c2c(-c3ccccc3)c3cc(Cl)ccc3[nH]c2=O)cc1
    4%, -4
- COc1ccc(NCCCC(=O)N/N=C/c2cccc([N+](=O)[O-])c2)cc1
    9%, -1
- COc1ccc(C(=O)/C=C/C2=C(c3ccccc3)Oc3ccccc3C2c2ccccc2C)cc1OC (centres undefined)
    -6%, -3
- Nc1nc(SCC(=O)N2CCN(c3ccccc3)CC2)n[nH]1
    -30%, -2
- C=CCNC(=O)CN(Cc1ccc(Br)cc1)S(=O)(=O)c1ccc(Cl)cc1
    -1%, -6
- CNC(=S)NNC(=O)c1sc2cccc(Br)c2c1Cl
    22%, 0
- CCn1ccc(CNC(=S)Nc2cccc(C(F)(F)F)c2)n1
    -4%, -8
- Cc1ccc(O)c(Sc2cc(C)ccc2O)c1
    39%, 15
- Cc1ccc(N2C(=O)CC(NNC(=O)c3ccncc3)C2=O)cc1 (centres undefined)
    0%, 3
- COCc1nnc(SCC(=O)NC(C)c2ccccc2)n1-c1ccccc1 (centres undefined)
    3%, -5
- CCOC(=O)c1cnn(-c2ccc(Cl)c(Cl)c2)c1N
    -11%, -4
- CC(C)NC(=O)NC1(C)CCS(=O)(=O)C1 (centres undefined)
    7%, -4
- CCCCSc1nc(C)c(I)c(=O)[nH]1
    16%, 4
- O=C(Nc1ccc(Br)cc1)C1CC(=O)N(C2CCCCC2)C1 (centres undefined)
    18%, 7
- CN1C(=O)C(O)(C2OC(C)(C)CCC2=O)c2ccccc21 (centres undefined)
    -1%, -4
- O=C(Oc1ccccn1)C1COc2ccccc2O1 (centres undefined)
    -5%, -1
- Cn1cccc1C1C2=C(CC(C)(C)CC2=O)Nc2ccccc2N1C(=O)Cc1ccccc1 (centres undefined)
    4%, 1
- Cn1c(=O)c2c(nc(Oc3ccccc3)n2C)n(C)c1=O
    5%, -3
- COC(Cc1nc2ccccc2s1)C(=O)O (centres undefined)
    10%, 6

Random excerpt: 5 records from the list
Below each SMILES – V. cholerae motility, V. cholerae motility viability
- Cn1c(=O)c2c(nc(Oc3ccccc3)n2C)n(C)c1=O
    5%, -3
- COCc1nnc(SCC(=O)NC(C)c2ccccc2)n1-c1ccccc1 (centres undefined)
    3%, -5
- CCCCSc1nc(C)c(I)c(=O)[nH]1
    16%, 4
- O=C(Oc1ccccn1)C1COc2ccccc2O1 (centres undefined)
    -5%, -1
- Cc1ccc(N2C(=O)CC(NNC(=O)c3ccncc3)C2=O)cc1 (centres undefined)
    0%, 3
